# AF4-AF9 inh: blocks AF4 peptide binding to human AF9. inhibition, % at 10 µM. AlphaScreen, biotin-AF4 peptide binding to FLAG-AF9. P42568. actives 0.47% (n = 350,000). AID 651704;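 active = every replicate reaching a set inhibition limit, whatever the replicate mean, cut at about 25% in these data; inconclusive = mean inhibition reaches that limit but some replicates miss it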;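 also: 0% = plate neutral control median and 100% = total signal loss; the record names both 10 and 1 µM as test concentration; the first replicate is given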
# Target sequence (P42568 whole entry, looked up): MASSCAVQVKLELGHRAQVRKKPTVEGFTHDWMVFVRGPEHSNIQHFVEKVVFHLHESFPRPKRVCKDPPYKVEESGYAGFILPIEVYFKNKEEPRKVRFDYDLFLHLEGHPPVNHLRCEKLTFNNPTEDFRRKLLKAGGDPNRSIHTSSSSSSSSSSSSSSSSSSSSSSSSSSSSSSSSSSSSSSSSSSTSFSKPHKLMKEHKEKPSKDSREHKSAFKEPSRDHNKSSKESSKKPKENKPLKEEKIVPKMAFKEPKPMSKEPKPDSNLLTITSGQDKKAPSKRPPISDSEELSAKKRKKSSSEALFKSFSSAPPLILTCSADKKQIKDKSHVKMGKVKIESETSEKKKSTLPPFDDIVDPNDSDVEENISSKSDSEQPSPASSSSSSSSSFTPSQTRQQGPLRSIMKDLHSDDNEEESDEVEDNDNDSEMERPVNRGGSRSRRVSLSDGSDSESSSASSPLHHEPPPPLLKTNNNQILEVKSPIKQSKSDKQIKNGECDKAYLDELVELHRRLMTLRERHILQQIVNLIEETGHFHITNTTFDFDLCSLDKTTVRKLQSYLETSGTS
# rRNA inh HTS: inhibits bacterial ribosomal RNA function over humanized ribosomes; actives 1.6% (n = 350,000); GFP signal change (wild-type ribosome), % (test concentration not listed); E. coli WT GFP vs humanized-ribosome RFP mutants, fluorescence, 24 h; stronger effect = lower value; DMSO median 0, no signal -100;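 active = significant combined selectivity score with lowered wild-type GFP, culture density cut under 30%, mutant RFP and density less affected; inactive = any of these conditions unmet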; also: one replicate is shown; some compounds called inactive have numbers as strong as hits
# RanGTP-Imp inh: inhibitors of RanGTP-importin-beta interaction, primary screen, biochemical, FRET, CFP-Ran, YFP-importin-beta, homogeneous | inhibition, % (test concentration not listed) | cell-free CFP-Ran/YFP-importin-beta FRET ratio | actives 1.1% (n = 300,000);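 active = most replicates above 15%; inconclusive = exactly half above 15%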;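 also: 0% = DMSO wells and 100% = Ran loaded with GDP instead of GTP; wells of about 40 µL received 100 nL stock; the first replicate is given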
# Beta cell apopt: blocks beta cell apoptosis; INS-1E cytokine-induced death, ATP luminescence, 48 h; percent of positive-control rescue, neutral wells zero; protection from apoptosis, % (no concentration beside the values); actives 0.8% (n = 300,000);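 active = all replicates at 75% or more, or half of them and the mean; inconclusive = half reach 75% but not the mean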;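 also: 0% = cytokine-treated negative control wells and 100% = positive control rescue; higher means more ATP so stronger rescue from cytokine killing; wells of about 40 µL received 100 nL stock; the first replicate is given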
# Calb FLC: affects C. albicans growth with fluconazole; C. albicans CaCi-2 (fluconazole-resistant clinical isolate) + fluconazole, Alamar Blue growth, 48 h; growth inhibition, % (concentration not given with the values); actives 0.57% (n = 300,000);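 active = most replicates above 75%; inconclusive = exactly half above 75%; inactive = most below 75%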;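 also: all wells also contain fluconazole at 8 µg/ml as a sub-toxic cotreatment; 0% = median of DMSO wells and 100% = median of geldanamycin control wells; wells of about 8 µL received 7.5 nL stock; the first replicate is given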
# T cruzi inh: blocks replication of Trypanosoma cruzi; actives 1.4% (n = 300,000); T. cruzi beta-gal in NIH3T3, luminescence, 90 h; inhibition, % (concentration not given with the values);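 active = mean inhibition across valid replicates above about 55%, limit read from the data; inconclusive = mean below that limit but half or more replicates reach it; inactive = mean below it, under half of replicates reach it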;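 also: signal also drops with host cell toxicity which is not excluded here; 0% = plate median of DMSO wells and 100% = zero luminescence signal; higher percent means less beta-gal luminescence so fewer parasites; stock transfer was 50 nL into about 50 µL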
# FGF22 binding: binders of recombinant human FGF22 by thermal shift; SYPRO orange fluorescence; percent of sucrose octasulfate shift, DMSO zero; calls only at 9.99 µM; actives 1.5% (n = 340,000); Q9HCT0;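 active = melting point raised past a set limit in the mean and every replicate; inconclusive = no clear call; three in four hits are not shown here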
# Target sequence (Q9HCT0 whole entry, looked up): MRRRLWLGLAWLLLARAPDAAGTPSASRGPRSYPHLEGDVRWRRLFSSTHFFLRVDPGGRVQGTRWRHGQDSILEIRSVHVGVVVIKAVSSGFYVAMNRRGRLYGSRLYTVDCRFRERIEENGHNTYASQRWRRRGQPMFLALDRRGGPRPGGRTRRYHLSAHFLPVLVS
# ALR inh: inhibitors of human sulfhydryl oxidase ALR. P55789. purified ALR, DTT oxidation, H2O2 HRP-luminol luminescence. inhibition, % (concentration not given with the values). actives 3.8% (n = 290,000). AID 485317;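 active = mean and each replicate at 75% or more; inconclusive = only one of the two met; inactive = neither met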;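 also: stock transfer was 7.5 nL into about 7.5 µL; 0% = neutral wells and 100% = wells with inactivated enzyme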
# Target sequence (P55789 whole entry, looked up): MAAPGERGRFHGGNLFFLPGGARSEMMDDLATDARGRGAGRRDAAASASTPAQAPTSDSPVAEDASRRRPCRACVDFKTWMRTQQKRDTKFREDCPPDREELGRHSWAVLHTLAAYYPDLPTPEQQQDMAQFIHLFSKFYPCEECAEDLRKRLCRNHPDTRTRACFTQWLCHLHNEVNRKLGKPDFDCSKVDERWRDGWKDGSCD
# rRNA inh HTS OD600: further read-out of rRNA inh HTS, marked with its call; OD600 change, %; measured here: OD600 growth;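 optical density of the mix in the first replicate; 0 = DMSO median and -100 = no signal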
# rRNA inh HTS RFP: also measured in rRNA inh HTS; calls as there; RFP signal change, %; measured here: RFP humanized mutant strains;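 first replicate; 0 = DMSO median and -100 = no signal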
# An asterisk follows results filed as active; i = inactive; u = inconclusive; x = not tested or not shown. Some of the compounds tested; count on the stated rates, not on these rows.
structure	RanGTP-Imp inh	AF4-AF9 inh	rRNA inh HTS OD600	rRNA inh HTS	T cruzi inh	Beta cell apopt	FGF22 binding	Calb FLC	ALR inh	rRNA inh HTS RFP
O=C(NNS(=O)(=O)c1ccc(Cl)cc1Cl)c1cc2ncc(C(F)(F)F)cc2s1	1.3	2.6	-27	-20	x	-3	i	-6	-4	5.5
Oc1cccc(Nc2nc(-c3ccccc3)nc3ccccc23)c1	-1.7	-1.6	-81	-58	12	-2	i	4	20	-20
C=CCN(CC=C)C(=O)CN1C(=O)NC(Cc2c[nH]c3ccccc23)C1=O (stereo not given)	-5.3	-0.9	7	13	-12	-2	i	1	-8	0.4
CCC(=O)N1CCc2cc(S(=O)(=O)NCCC(=O)NCc3ccccc3OC)ccc21	-14	-2.3	7	13	16	2	i	-2	4	3.7
CCOc1ccccc1OCCOCCOc1ccccc1[N+](=O)[O-]	6.4	2.1	x	x	11	4	i	8	0	x
CCn1c(CN2CCN(C(c3ccccc3)c3ccccc3)CC2)nc2c1c(=O)n(C)c(=O)n2C	1.6	x	x	x	36	3	x	10	-19	x
COc1cc(CNC2CCCC2)cc(Cl)c1OCc1ccccc1F	-3.4	-50	-50	-45	58*	14	i	-35	-1	-13
COc1ccc(C(=O)NCC(=O)OCC(=O)Nc2cccc(S(=O)(=O)N3CCCC3)c2)cc1	4.2	-7.5	-15	-12	-6	-6	i	-1	3	0.9
Clc1ccc(-c2noc3c2-c2nc(Cc4cccc5ccccc45)sc2CC3)cc1	3.2	-1.7	-3	2	-16	x	i	9	-3	-4.1
CCCCn1c(=N)n(CC(=O)C(C)(C)C)c2ccccc21	5.5	x	x	x	62*	3	x	-10	30	x
CN1CCN(C(=O)c2cc(S(=O)(=O)Nc3ccccc3F)c(Cl)cc2Cl)CC1	2.6	-51	1	1	-9	4	i	0	x	2.3
Cn1c(SCC(=O)NCC2CCCO2)ncc(C(=O)Nc2ccc(F)cc2)c1=O (stereo not given)	1.1	-5.7	15	8	-6	x	i	3	72	-1.9
COc1ccc(/C=C/C(=O)Nc2ccccc2C(F)(F)F)cc1	u	x	x	x	-28	1	x	-14	-1	x
O=C(c1cc(COc2ccc(F)cc2Cl)on1)N(CCO)Cc1cccs1	22	-1.2	-33	-9	-12	-3	i	-4	-1	-18
Cc1ccc2cc(C#N)c(SCC(=O)N3CCCc4ccccc43)nc2c1	-0.6	x	x	x	6	0	x	-3	-6	x
CCOc1ccc(NC(=O)CN2C(=O)COc3ccc(S(=O)(=O)N4CCCC4)cc32)cc1	-0.3	-0.2	-14*	-23*	-5	-5	i	2	-1	-2.7*
CCN(CC)CCn1c(NCc2ccc3c(c2)OCO3)nc2ccccc21	0.4	8.0	-1	-3	15	-4	i	3	47	2.7
COc1ccc(CN(CC(O)COc2cccc3[nH]cc(C)c23)C(C)(C)C)cc1 (stereo not given)	-1.3	19	-3	5	9	-6	i	-18	24	-1.0
N/C(Cc1ccccc1Sc1ccccc1)=N\O	-2.6	3.2	-20	-18	-7	0	i	-3	23	-4.4
O=C(CCc1ccccc1)NNC(=O)c1ccccc1C(=O)O	u	-2.0	19	10	4	1	i	-1	-1	4.3
CCCCOc1ccc(-c2nnn(CCC(=O)N3CCOCC3)n2)cc1	-4.0	3.9	-11*	-22*	0	5	i	0	-4	-2.6*
Cc1cc2c(Nc3ccc(O)cc3)ncnc2s1	1.5	-6.2	0	2	-15	x	i	0	94*	0.3
CC(C)C(C)NC(=O)COc1ncnc2sccc12 (stereo not given)	-2.4	-1.8	9	18	-4	-4	i	-13	-1	2.7
CN(CC(=O)NC(=O)NC(C)(C)C)CC(=O)Nc1ccccc1Cl	-5.3	0.3	8	11	1	-2	i	-4	-8	9.2
Cc1nc(SCCOc2ccc(F)cc2)c2ccccc2n1	0.5	-4.7	x	x	-2	-6	i	3	-4	x

# Exported as labelled records: part of the list above
Structure: COc1cc(CNC2CCCC2)cc(Cl)c1OCc1ccccc1F
  RanGTP-Imp inh: -3.4
  AF4-AF9 inh: -50
  rRNA inh HTS OD600: -50
  rRNA inh HTS: -45
  T cruzi inh: 58*
  Beta cell apopt: 14
  FGF22 binding: i
  Calb FLC: -35
  ALR inh: -1
  rRNA inh HTS RFP: -13

Structure: CCn1c(CN2CCN(C(c3ccccc3)c3ccccc3)CC2)nc2c1c(=O)n(C)c(=O)n2C
  RanGTP-Imp inh: 1.6
  AF4-AF9 inh: x
  rRNA inh HTS OD600: x
  rRNA inh HTS: x
  T cruzi inh: 36
  Beta cell apopt: 3
  FGF22 binding: x
  Calb FLC: 10
  ALR inh: -19
  rRNA inh HTS RFP: x

# Results in Beta cell apopt and ALR inh, for some of the entries so far:
smiles | Beta cell apopt | ALR inh
C=CCN(CC=C)C(=O)CN1C(=O)NC(Cc2c[nH]c3ccccc23)C1=O (stereo not given) | -2 | -8
Cn1c(SCC(=O)NCC2CCCO2)ncc(C(=O)Nc2ccc(F)cc2)c1=O (stereo not given) | x | 72

# (listing goes on)
structure	RanGTP-Imp inh	AF4-AF9 inh	rRNA inh HTS OD600	rRNA inh HTS	T cruzi inh	Beta cell apopt	FGF22 binding	Calb FLC	ALR inh	rRNA inh HTS RFP
Cc1nc2c(C)cccc2c2c1COC2	0.5	x	9	6	-8	-1	i	-5	x	-1.3
CCC(=O)c1cn(CC(=O)NCC2CCCO2)c2ccccc12 (stereo not given)	u	x	x	x	-5	-10	x	-6	-5	x
CC(=O)Nc1ccc(S(=O)(=O)NCC(=O)NCCCc2ccccc2)cc1	8.3	0.0	7	2	-7	1	i	-1	28	1.4
CCOc1ccccc1NC(=O)C1CCN(S(=O)(=O)c2c(C)nn(C)c2C)CC1	3.1	-1.4	0	3	-5	2	i	1	11	-2.8
COc1ccc2nc(SCCC(=O)O)cc(C)c2c1	-4.9	2.4	-2	-4	8	3	i	-3	1	7.1
CCOc1ccccc1NC(=O)CCS(=O)(=O)c1ccc2c(c1)CC(C)N2C(C)=O (stereo not given)	0.3	0.9	7	0	1	-2	i	-25	-14	-3.6
CCN(CC)P(=O)(Nc1ccc([N+](=O)[O-])cc1)c1c(C)nn(CCC#N)c1NC(=O)c1ccc(Cl)cc1Cl (stereo not given)	2.0	0.8	9	5	13	13	x	28	-3	1.0
COc1ccccc1-c1nnc(SCC(=O)Nc2ccc(S(N)(=O)=O)cc2)n1C	-2.8	x	x	x	-13	-3	x	1	-3	x
O=C(Nc1nc(-c2ccccc2)cs1)Nc1ccc(F)cc1F	7.4	-2.5	-6	-14	26	13	i	-6	1	-0.5
NC(=S)N/N=C/c1c(O)c(Br)cc2oc3c(c12)CCCC3	0.3	0.7	-17	-11	18	82*	i	31	-12	19
COc1ccc(C2NC(=O)NC(O)(C(F)(F)F)C2C(=O)c2ccc(C)cc2)cc1 (stereo not given)	-3.9	x	-10	-8	-6	-4	x	14	-9	7.7
O=C(Nc1ccc(Br)cc1)c1ccc(N2C(=O)C3CCCCC3C2=O)cc1 (stereo not given)	1.7	-1.1	2	-8	-12	-7	i	-7	1	-2.8
COC(=O)CNC(c1ccccc1)c1cc(Br)ccc1NC(=O)CNC(=O)OCc1ccccc1 (stereo not given)	-1.3	x	x	x	9	-7	x	-5	-6	x
COc1ccc2oc(C(=O)NC(C)c3ccccn3)c(C)c2c1 (stereo not given)	x	-2.8	-3	-3	x	0	i	x	-3	0.1
O=C(NCC1OCCCN1S(=O)(=O)c1cc(F)ccc1F)C(=O)NC1CCCCCC1 (stereo not given)	-0.4	0.6	4	3	-4	-1	i	u	6	-2.4
COc1cccc(-n2c(COc3ccc(C)cc3)nnc2SCC(N)=O)c1	-3.8	x	x	x	-5	-1	x	1	0	x
COc1ccc(CN(C(=O)c2ccco2)c2ccc(C)c(C)c2)cc1	-2.9	3.2	-79	-51	-44	-4	i	1	0	-11
CCC(CC)c1nnc(NC(=O)c2c(-c3ccccc3)noc2C)s1	2.0	6.2	-11	-4	1	0	i	2	78*	-2.2
Cc1ccc(NC(=O)N/C=C/c2ccco2)c(C)c1	2.4	x	x	x	-5	-5	x	0	64	x
CCn1c(CNC(=O)c2ccco2)nnc1SCCOc1ccccc1	2.9	-2.2	6	3	0	-3	i	-6	-2	4.5
CCN(c1ccccc1)S(=O)(=O)c1ccc(N2CCN(c3ccc(OC)cc3)CC2)nc1	x	0.5	11	1	x	7	i	x	-2	-0.8
NC(=O)Cn1c(O)c(N=NC(=O)CNC(=O)/C=C/c2ccccc2)c2ccccc21	0.7	-1.7	14	10	-2	-6	i	3	-12	-2.0
O=C(COC(=O)CCC(=O)c1ccc(F)cc1)Nc1ccc(N2CCOCC2)cc1	-5.6	x	x	x	x	-8	x	3	10	x
Cn1nccc1NC(=O)CC1(CC(=O)O)CCCCC1	1.3	-4.5	8	11	-24	-9	i	23	-2	0.2
O=C(CN1CCCC1)N1c2ccccc2Sc2ccc(Cl)cc21	0.2	6.3	-2	-9	15	-1	i	-4	-3	0.1
O=S(=O)(NCC1CCC(NS(=O)(=O)c2c(F)cccc2F)CC1)c1ccc2c(c1)OCCO2 (stereo not given)	x	0.9	8	5	x	-1	i	x	5	0.2
Cc1cc(NS(=O)(=O)c2ccc(NC(=O)Nc3cccc(C(F)(F)F)c3)cc2)no1	-0.6	0.6	x	x	-6	1	i	-15	6	x
Cc1cccc(Cn2c(=O)n(-c3ccc(CC(=O)NCc4ccco4)cc3)c(=O)c3sccc32)c1	8.1	-2.2	0	-1	-19	-7	i	-2	x	-6.4
CN(C)c1nc(N2CCN(c3ccccc3)CC2)c(C#N)c(=O)o1	1.4	x	x	x	0	-11	x	-5	55	x
FC(F)Oc1ccc(NC(=S)NC23CC4CC(CC(C4)C2)C3)cc1	-2.7	1.9	-51	-20	14	5	i	-7	-4	-8.3

# Full records, quoted from the list. Values in the order: RanGTP-Imp inh | AF4-AF9 inh | rRNA inh HTS OD600 | rRNA inh HTS | T cruzi inh | Beta cell apopt | FGF22 binding | Calb FLC | ALR inh | rRNA inh HTS RFP
# O=S(=O)(NCC1CCC(NS(=O)(=O)c2c(F)cccc2F)CC1)c1ccc2c(c1)OCCO2 (stereo not given) is listed as x | 0.9 | 8 | 5 | x | -1 | i | x | 5 | 0.2
# Cc1cc(NS(=O)(=O)c2ccc(NC(=O)Nc3cccc(C(F)(F)F)c3)cc2)no1 is listed as -0.6 | 0.6 | x | x | -6 | 1 | i | -15 | 6 | x
# CN(C)c1nc(N2CCN(c3ccccc3)CC2)c(C#N)c(=O)o1 is listed as 1.4 | x | x | x | 0 | -11 | x | -5 | 55 | x
# Cc1cccc(Cn2c(=O)n(-c3ccc(CC(=O)NCc4ccco4)cc3)c(=O)c3sccc32)c1 is listed as 8.1 | -2.2 | 0 | -1 | -19 | -7 | i | -2 | x | -6.4
